# CtBP-E1A blk: inhibitors of CtBP/E1A interaction; AlphaScreen GST-E1A/His-CtBP binding, 1536-well; hits give low values; control for the full effect not named in the record; activity change, % (concentration not given with the values); 340,000 tested, 0.49% active; AID 651724; in the data active means activity change below about -65%; inconclusive means about -30% to -65%; inactive means above about -30%; further: on the % scale 0 is the no-effect control and ±100 the full control effect
#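 AlphaScreen with 125 nM GST-E1A and 125 nM His-CtBP (5X stocks) in Tris pH 8.0, 300 mM NaCl, BSA, Tween 20, TCEP. Compounds preincubated 2 h at 37 deg C, then glutathione donor/nickel acceptor beads added for 1 h at 37 deg C in dark.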
# TRPML1 blocker: human mucolipin-1 channel inhibition; Q9GZU1; TRPML1-inducible cells, Ca2+ dye fluorescence, FDSS; hits give low values; inhibition of EC80 agonist-evoked calcium signal; activity change, negative = inhibition, % (no concentration beside the values); 390,000 tested, 0.02% active; AID 624415; in the data active means activity change below about -50%; inconclusive means about -30% to -50%; inactive means above about -30%;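 further: stimulus is agonist 54-4 at its EC80 concentration; on the % scale 0 is the no-effect control and ±100 the full control effect; compound concentration not given in the record; the text of the record puts the active cut at -80%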
#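 Calcium fluorescence in TRPML1-DL cells induced overnight with Tet: a 110 s read after compound pin addition, then a 110 s antagonist read after challenge with 54-4 at 4 uM final (EC80).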
# TRPML1 agonist: human mucolipin-1 channel agonism; TRPML1-expressing cells, Ca2+ dye fluorescence, FDSS; host cell line not named in the record; reference of the full effect not given here; activation, % (concentration not given with the values); 410,000 tested, 0.12% active; AID 624414; in the data active = activation above about 50%; inconclusive = about 30% to 50%; inactive = below about 30%; further: 0% is about no effect; the text of the record puts the active cut at 80%
#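 Agonist activity was taken from a 110 s kinetic Ca2+ dye read on the FDSS after pinning compounds onto TRPML1-DL cells. The cells were seeded at 1,500/well with Tet inducer, incubated about 16 h, then dye-loaded at room temperature.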
# Six1-Eya2 inh: blocks human Six1 binding to Eya2 | AlphaScreen GST-Six1/His-Eya2 binding, biochemical; hits give low values; control for the full effect not named in the record | activity change, % (test concentration not listed) | 360,000 tested, 0.56% active | AID 651725; in the data active = activity change below about -65%; inconclusive = about -30% to -65%; inactive = above about -30%; further: on the % scale 0 is the no-effect control and ±100 the full control effect; compound concentration not given in the record
# Target sequence (O00167 whole entry, looked up): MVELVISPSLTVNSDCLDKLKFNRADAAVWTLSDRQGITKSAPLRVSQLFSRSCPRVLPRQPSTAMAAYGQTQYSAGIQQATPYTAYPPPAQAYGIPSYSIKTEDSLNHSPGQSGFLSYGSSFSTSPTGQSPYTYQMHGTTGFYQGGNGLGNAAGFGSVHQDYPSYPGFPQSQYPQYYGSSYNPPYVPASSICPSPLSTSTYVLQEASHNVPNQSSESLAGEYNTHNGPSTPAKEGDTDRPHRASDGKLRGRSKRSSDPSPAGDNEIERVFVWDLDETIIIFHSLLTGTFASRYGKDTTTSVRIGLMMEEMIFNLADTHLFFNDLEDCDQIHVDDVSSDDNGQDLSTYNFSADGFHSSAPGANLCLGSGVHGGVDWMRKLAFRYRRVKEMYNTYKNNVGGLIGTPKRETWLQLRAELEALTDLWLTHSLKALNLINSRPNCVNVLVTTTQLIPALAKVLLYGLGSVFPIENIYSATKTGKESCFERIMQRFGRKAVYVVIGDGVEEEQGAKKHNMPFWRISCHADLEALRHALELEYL
# Target sequence (Q15475 whole entry, looked up): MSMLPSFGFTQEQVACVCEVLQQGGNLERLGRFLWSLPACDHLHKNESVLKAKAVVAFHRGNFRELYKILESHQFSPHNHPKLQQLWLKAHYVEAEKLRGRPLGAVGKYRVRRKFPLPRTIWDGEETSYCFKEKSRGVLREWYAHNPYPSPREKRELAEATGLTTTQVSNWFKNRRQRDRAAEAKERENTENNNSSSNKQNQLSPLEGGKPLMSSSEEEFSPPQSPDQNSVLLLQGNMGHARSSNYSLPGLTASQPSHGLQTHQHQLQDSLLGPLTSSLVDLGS
#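 AlphaScreen with GST-Six1 and His-Eya2 (5X mix: 250 nM and 500 nM), glutathione donor and nickel acceptor beads; buffer 50 mM Tris pH 8.0, 300 mM NaCl, 1 mM TCEP; 1 h at 37 C in the dark.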
# TRPV1 PAM: enhances activation of the human vanilloid receptor TRPV1; Q8NER1; TRPV1-expressing cells, Fluo-8 calcium influx, capsaicin EC20 potentiation; host cell line not named in the record; control for the full effect not named in the record; potentiation, % at 8.33 µM; 320,000 tested, 0.02% active; active means potentiation above 80%; inconclusive means 30% to 80%; inactive means below 30%; further: 0% is about no effect
#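 Fluo-8 calcium influx in TRPV1-expressing cells, kinetic read (ex 480/em 520 nm). Compound added and read 3 min for agonist activity, followed by capsaicin at EC20 final and 2 min further read for enhancement.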
# D2 PAM: positive allosteric modulators of human D2 dopamine receptor | DiscoveRx D2 beta-arrestin cells, luminescence, 90 min; 100% = 57 uM dopamine signal | P14416 | 360,000 tested, 0.23% active | potentiation, % (test concentration not listed); active = potentiation of 50% or more; inconclusive = 30% to 50%; inactive = 30% or less;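 further: compound concentration not given in the record; tested on top of an EC20 dose of dopamine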
#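 PathHunter beta-arrestin assay in DiscoveRx D2 cells. Compounds were added with an EC20 of dopamine (50 nM final) for 90 min at 37 deg C. Luminescence was read 1 h after detection reagent, with 57 uM dopamine as the EC100 control.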
# Starred values were filed as active, the others as inactive; ? = inconclusive; nt = no result given. This is a random part of the collection; about 0.95% have a hit in one of these screens.
cpd	smiles	CtBP-E1A blk	TRPML1 blocker	TRPML1 agonist
1	Cc1ccc(N2C(=O)C(NC(=O)c3ccccc3F)(C(F)(F)F)C3=C2CC(C)(C)CC3=O)cc1 (configuration not stated)	0	19	1.3
2	COc1ccc(S(=O)(=O)N2CCOCC2)cc1C(=O)Nc1ccc2c(c1)OCO2	-18	14	0.5
3	O=C(CSc1nnc(Nc2ccccc2F)s1)NCc1ccco1	-14	54	-0.1
4	COc1ccc(CCC(=O)NCC(c2ccco2)N2CCc3ccccc32)cc1 (configuration not stated)	-2	19	-0.3
5	CCN(CC)S(=O)(=O)c1ccc2oc(C(=O)NC(C)C)c(C)c2c1	0	-6	3.0
6	CN(C)c1ccncc1C(=O)Nc1ccc(F)cc1F	-10	29	1.4
7	COc1cccc(OCc2ccc(C(=O)NCC3CCCO3)cc2)c1 (configuration not stated)	4	22	-0.7
8	Cc1ccc(-n2ncc3c2CCCC3NC(=O)CCN2CCCC2=O)cc1C (configuration not stated)	4	2	-0.3
9	CSc1nc2nccc(/C=C\c3ccccc3)n2n1	-3	13	0.5
10	O=C(CN1CCOCC1)N/N=C/c1ccc(-c2ccc(C(=O)O)cc2)o1	3	0	1.0
11	CC(C)NC(=O)COc1nncc2ccccc12	-7	-8	0.2
12	Cc1ccc(C(=O)Nc2cc3c(cc2N2CCCCC2)n(C)c(=O)n3C)cc1	6	-23	0.4
13	COc1ccc(-n2c(SCC#N)nc3c(sc(=S)n3-c3ccccc3)c2=O)c(OC)c1	0	-8	1.5
14	CCOC(=O)C1CCN(C(=O)CCc2nnc3ccc(N4CCC(C)CC4)nn23)CC1	5	2	-1.5
15	CC1CCCN(C(=O)COc2ccc(Nc3ccccc3)cc2)C1 (configuration not stated)	-7	19	-0.3

cpd	Six1-Eya2 inh	TRPV1 PAM	D2 PAM
1	6	-12	-17
2	-19	-20	-2
3	-21	-11	0
4	-20	?	-23
5	2	-15	3
6	14	-5	-1
7	3	-7	-11
8	1	-2	-6
9	-3	1	-20
10	3	5	2
11	6	0	-1
12	1	-2	-1
13	-22	-18	-12
14	0	-32	-5
15	-3	-19	-4

# (list continues)
cpd	smiles	CtBP-E1A blk	TRPML1 blocker	TRPML1 agonist
16	C/C(=N\NC(=O)c1ccc2c(c1)OCO2)c1ccc(O)cc1	-11	nt	nt
17	CCN(C)C1CN(Cc2cn(Cc3ccc(C(F)(F)F)cc3)nn2)S(=O)(=O)C1 (configuration not stated)	-12	nt	0.2
18	O=C(NC1CCCC1)C(c1cccnc1)N(Cc1ccccc1F)C(=O)c1csnn1 (configuration not stated)	0	10	-0.1
19	Nc1nnc2c(C(F)(F)F)nc3ccccc3n12	-30	10	1.1
20	COc1ccc(C2(C)NC(=O)N(CC(=O)c3cc(C)n(C4CC4)c3C)C2=O)cc1OC (configuration not stated)	-3	-12	1.1
21	Clc1cccc2sc(-c3nnc(-c4ccccc4)o3)c(Cl)c12	14	-8	-1.3
22	CCOc1ccc(-c2nn(-c3ccccc3)cc2/C=C2\SC(=S)N(C3CCS(=O)(=O)C3)C2=O)cc1 (configuration not stated)	-2	27	1.8
23	CCC(C)(C(=O)NC1CCCCC1)N(C(=O)CC1NC(=O)NC1=O)c1c(C)n(C)n(-c2ccccc2)c1=O (configuration not stated)	-2	35	1.3
24	Cc1ccc2nc(SCCC#N)nc(C)c2c1	-1	-13	2.9
25	Cc1ccc(S(=O)(=O)Nc2ccc(S(=O)(=O)N3CCOCC3)cc2)cc1	3	-15	0.0
26	CCOC(=O)c1ccc(S(=O)(=O)N2CCN(C(=O)c3cccc(S(=O)(=O)N4CC(C)OC(C)C4)c3)CC2)cc1 (configuration not stated)	-8	-14	1.3
27	Brc1ccc(OCc2nc(-c3ccccn3)n[nH]2)cc1	-93*	-7	-1.0
28	COc1ccc(C(=O)NCCSCc2ccc(C)cc2)cc1	0	2	1.7
29	CSc1ncccc1C(=O)OCC(=O)NCc1ccc2c(c1)OCO2	nt	-2	1.1
30	Cn1c(SCc2nc3ccccc3s2)nnc1-c1cccs1	-1	3	1.0

cpd	Six1-Eya2 inh	TRPV1 PAM	D2 PAM
16	-5	-29	-16
17	9	nt	nt
18	2	12	-6
19	-22	10	0
20	-7	10	-8
21	5	nt	14
22	-8	6	-5
23	4	4	-2
24	-2	-5	-25
25	13	nt	-7
26	3	nt	-2
27	-91*	?	-3
28	-9	-7	-3
29	9	5	-7
30	0	1	-3

# Record cards (already shown). Screens in order: CtBP-E1A blk | TRPML1 blocker | TRPML1 agonist | Six1-Eya2 inh | TRPV1 PAM | D2 PAM
# `CCC(C)(C(=O)NC1CCCCC1)N(C(=O)CC1NC(=O)NC1=O)c1c(C)n(C)n(-c2ccccc2)c1=O` (configuration not stated) across the screens: -2 | 35 | 1.3 | 4 | 4 | -2
# `COc1ccc(C2(C)NC(=O)N(CC(=O)c3cc(C)n(C4CC4)c3C)C2=O)cc1OC` (configuration not stated) across the screens: -3 | -12 | 1.1 | -7 | 10 | -8
# `CCOc1ccc(-c2nn(-c3ccccc3)cc2/C=C2\SC(=S)N(C3CCS(=O)(=O)C3)C2=O)cc1` (configuration not stated) across the screens: -2 | 27 | 1.8 | -8 | 6 | -5
# `CCOC(=O)c1ccc(S(=O)(=O)N2CCN(C(=O)c3cccc(S(=O)(=O)N4CC(C)OC(C)C4)c3)CC2)cc1` (configuration not stated) across the screens: -8 | -14 | 1.3 | 3 | nt | -2
# `Nc1nnc2c(C(F)(F)F)nc3ccccc3n12` across the screens: -30 | 10 | 1.1 | -22 | 10 | 0

# The results go on:
cpd	smiles	CtBP-E1A blk	TRPML1 blocker	TRPML1 agonist
31	O=C(CSc1ncnc2c1nnn2Cc1ccccc1)NC1CCCCC1	3	-5	0.1
32	COc1ccccc1N(C(=O)c1snc(C(N)=O)c1N)C(C(=O)NCCC(C)C)c1ccco1 (configuration not stated)	3	13	1.0
33	O=C1CCc2ccccc2N1	3	-11	-0.6
34	OCCNc1ncnc2c1ncn2[C@H]1CN(Cc2ccncc2)C[C@@H](CO)O1	1	4	-0.1
35	COc1ccc(CCNC(=O)c2ccc(CSc3ccccc3)o2)cc1	-9	-7	1.4
36	O=C(O)c1ccc2c(=O)n3c(nc2c1)/C(=C/c1ccc(Cl)c([N+](=O)[O-])c1)CC3	17	31	-1.2
37	COc1ccc(S(=O)(=O)N2CCN(C)CC2)cc1NC(=O)c1ccccc1	1	20	-0.4
38	CCN(CC(=O)Nc1ccccc1OC)C(=O)CN1C(=O)NC(C)(c2ccccc2)C1=O (configuration not stated)	-6	23	1.7
39	O=C(Cc1c(F)c(F)c(F)c(F)c1F)Nc1nc(-c2ccccc2)cs1	0	18	-0.1
40	CC(Sc1nnc(Cc2cccs2)n1C1CCCCC1)C(N)=O (configuration not stated)	6	14	0.6
41	CN(CC(=O)Nc1ccccc1Cl)CC(=O)c1c(N)n(Cc2ccccc2)c(=O)n(C)c1=O	-7	-6	1.1
42	Nc1nc(-c2ccc3c(c2)NC(=O)CO3)cs1	-2	11	-0.7
43	Cc1ccc(NC(=O)CC2S/C(=N/N=C/c3c[nH]c4ccccc34)NC2=O)cc1 (configuration not stated)	19	2	-0.3
44	CCc1ccc(N2CC(C(=O)N/N=C/c3ccccc3OC)CC2=O)cc1 (configuration not stated)	11	11	-1.1
45	Cc1cc(C(=O)Nc2ccccc2C(=O)N2CCCCC2)ccc1[N+](=O)[O-]	-4	6	-0.4

cpd	Six1-Eya2 inh	TRPV1 PAM	D2 PAM
31	-1	-8	20
32	2	-10	-11
33	7	7	4
34	0	nt	-14
35	3	-13	13
36	5	17	-7
37	0	-16	-4
38	8	-2	-11
39	-26	0	15
40	11	-12	4
41	5	-6	-2
42	-1	16	0
43	3	14	-5
44	2	-6	?
45	-11	-2	-5

# CtBP-E1A blk, entries above that show a hit.
No. | SMILES | CtBP-E1A blk | TRPML1 blocker | Six1-Eya2 inh | D2 PAM
27 | Brc1ccc(OCc2nc(-c3ccccn3)n[nH]2)cc1 | -93* | -7 | -91* | -3

# Going on with the list:
cpd	smiles	CtBP-E1A blk	TRPML1 blocker	TRPML1 agonist
46	CC1Cc2ccccc2N1c1ncnc(N)c1[N+](=O)[O-] (configuration not stated)	nt	1	1.3
47	CCCCCn1c(CN2CCN(Cc3ccccc3)CC2)nc2c1c(=O)[nH]c(=O)n2C	-1	20	0.0
48	CN(CC1CCCN(CCc2cccc(C(F)(F)F)c2)C1)C(=O)c1cc2ccccc2o1 (configuration not stated)	nt	-6	3.3
49	C[C@@H](C(=O)Nc1ccc2ccccc2c1)[C@H]1C[C@]1(C)[C@H](NS(=O)(=O)c1ccc(-c2ccccc2)cc1)c1ccccc1	-1	17	2.1
50	COc1ccccc1C(=O)NCCc1nc2ccccc2[nH]1	6	-10	-0.5
51	COc1ccc(/C(O)=C2/C(=O)C(=O)N(CCCN3CCOCC3)C2c2ccc(Cl)cc2)cc1 (configuration not stated)	16	-8	-0.8
52	CCN(C(=O)CSc1ncccc1C(=O)O)C1CCCCC1	nt	-13	0.3
53	CCc1ccc2nc(N(CCN(C)C)C(=O)c3ccc4ncsc4c3)sc2c1	-19	-23	0.9
54	CN1CCN(CCNC(=O)Nc2ccc([N+](=O)[O-])cc2)CC1	8	-1	-0.7
55	CC(=O)N1N=C(c2ccc(Br)cc2)CC1c1cn(C)c2ccccc12 (configuration not stated)	-14	1	3.0
56	CCCCn1nnnc1C(c1cc2ccccc2o1)N(C)Cc1ccc(Cl)cc1 (configuration not stated)	19	nt	1.8
57	Oc1ccccc1N=Cc1c(O)ccc2ccccc12	-13	13	14
58	Cc1ccc(OCCSc2nc(NC(C)C)nc(NC(C)C)n2)cc1	13	3	4.2
59	O=C(CSc1nnc(COc2ccc(Br)cc2)o1)N1CCOCC1	-2	39	-0.5
60	COc1ccccc1-c1cc2nc(NCCOc3ccccc3)ccn2n1	-8	nt	-0.6

cpd	Six1-Eya2 inh	TRPV1 PAM	D2 PAM
46	-8	2	-20
47	-1	-7	-24
48	-16	-19	-21
49	-7	0	-3
50	-2	11	-7
51	26	nt	-2
52	4	-1	-6
53	?	7	-17
54	1	5	-9
55	-18	6	-19
56	11	nt	nt
57	-14	-6	-7
58	15	-7	-16
59	2	6	0
60	-8	nt	-1

# (further entries)
cpd	smiles	CtBP-E1A blk	TRPML1 blocker	TRPML1 agonist
61	COc1ccc(-c2nc3ccccc3c(=O)n2CCOc2ccc(C)cc2C)cc1	nt	3	0.0
62	CC(=O)OCC(=O)[C@H]1CC[C@H]2[C@@H]3CC=C4C[C@@H](O)CC[C@]4(C)[C@H]3CC[C@]12C	1	0	-1.1
63	COC(C(=O)NCc1ccc(C)cc1)c1ccccc1 (configuration not stated)	nt	3	0.5
64	O=C(COC(=O)c1ccc2[nH]c3c(c2c1)CCCC3)NC1CCS(=O)(=O)C1 (configuration not stated)	-10	-13	-1.3

cpd	Six1-Eya2 inh	TRPV1 PAM	D2 PAM
61	-1	-2	-1
62	0	13	8
63	7	-10	-8
64	-2	4	4

# Bioassay records deposited in PubChem BioAssay by National Center for Advancing Translational Sciences (NCATS).
